RanGTP-Impb inh = inhibitors of RanGTP-importin-beta interaction, primary screen, biochemical, FRET, CFP-Ran, YFP-importin-beta, homogeneous; Ran GTPase (GTP-bound) - importin-beta complex; cell-free CFP-Ran/YFP-importin-beta FRET ratio; inhibition, % (test concentration not listed); 300,000 tested, 1.1% active;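 active = most replicates above 15%; inconclusive = exactly half above 15%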;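 note: 0% = DMSO wells and 100% = Ran loaded with GDP instead of GTP; wells of about 40 µL received 100 nL stock; the first replicate is given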
ALR H2O2 inh = inhibitors of human ALR sulfhydryl oxidase, primary screen, biochemical, H2O2 detection, HRP-luminol luminescence, single point. FAD-linked sulfhydryl oxidase ALR (Homo sapiens), P55789. inhibition, % (no concentration beside the values). purified ALR, DTT oxidation. 290,000 tested, 3.8% active;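 active = mean and each replicate at 75% or more; inconclusive = only one of the two met; inactive = neither met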;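 note: stock transfer was 7.5 nL into about 7.5 µL; 0% = neutral wells and 100% = wells with inactivated enzyme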
Target sequence (P55789 whole entry, looked up): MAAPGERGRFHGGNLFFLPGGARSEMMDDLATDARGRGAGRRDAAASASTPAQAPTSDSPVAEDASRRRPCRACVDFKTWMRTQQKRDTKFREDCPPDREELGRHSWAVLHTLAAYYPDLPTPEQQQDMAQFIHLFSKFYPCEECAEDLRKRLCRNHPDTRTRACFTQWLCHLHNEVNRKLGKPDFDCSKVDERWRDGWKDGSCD
Beta cell apopt = inhibitors of cytokine-induced beta cell apoptosis, primary screen, luminescence. protection from apoptosis, % (test concentration not listed). 300,000 tested, 0.8% active. INS-1E cytokine-induced death, ATP luminescence, 48 h; percent of positive-control rescue, neutral wells zero. AID 435005, 2010;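 active = all replicates at 75% or more, or half of them and the mean; inconclusive = half reach 75% but not the mean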;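 note: 0% = cytokine-treated negative control wells and 100% = positive control rescue; higher means more ATP so stronger rescue from cytokine killing; wells of about 40 µL received 100 nL stock; the first replicate is given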
FGF22 binding = binders of human FGF22 protein, primary screen, FGF22 synaptogenesis inhibitor project, biophysical, thermal shift, single point. Fibroblast growth factor 22 (Homo sapiens), Q9HCT0. recombinant FGF22 thermal shift, SYPRO orange fluorescence; percent of sucrose octasulfate shift, DMSO zero. calls only at 9.99 µM. 340,000 tested, 1.5% active;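 active = melting point raised past a set limit in the mean and every replicate; inconclusive = no clear call; three in four hits are not shown here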
Target sequence (Q9HCT0 whole entry, looked up): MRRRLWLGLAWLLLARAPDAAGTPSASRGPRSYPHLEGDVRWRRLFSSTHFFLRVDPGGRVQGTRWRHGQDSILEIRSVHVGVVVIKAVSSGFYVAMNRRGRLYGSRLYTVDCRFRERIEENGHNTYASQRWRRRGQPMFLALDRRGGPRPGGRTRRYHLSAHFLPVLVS
rRNA inh HTS = reduced GFP signal of wild-type E. coli, primary screen, bacterial rRNA inhibitor project, GFP/RFP fluorescence, OD600, single point; E. coli WT GFP vs humanized-ribosome RFP mutants, 24 h; stronger effect = lower value; DMSO median 0, no signal -100; GFP signal change (wild-type ribosome), % (no concentration beside the values); 350,000 tested, 1.6% active; AID 720706, 2013;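 active = significant combined selectivity score with lowered wild-type GFP, culture density cut under 30%, mutant RFP and density less affected; inactive = any of these conditions unmet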; note: one replicate is shown; some compounds called inactive have numbers as strong as hits
Calb FLC = C. albicans growth inhibition with fluconazole, primary screen, CaCi-2 strain, Alamar Blue fluorescence; 300,000 tested, 0.57% active; C. albicans CaCi-2 (fluconazole-resistant clinical isolate) + fluconazole, 48 h; growth inhibition, % (concentration not given with the values);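 active = most replicates above 75%; inconclusive = exactly half above 75%; inactive = most below 75%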;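 note: all wells also contain fluconazole at 8 µg/ml as a sub-toxic cotreatment; 0% = median of DMSO wells and 100% = median of geldanamycin control wells; wells of about 8 µL received 7.5 nL stock; the first replicate is given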
AF4-AF9 inh = inhibitors of AF4 peptide binding to AF9, primary screen, biochemical, AlphaScreen, biotin-AF4 peptide, FLAG-AF9, single point; Protein AF-9 (Homo sapiens), P42568; inhibition, % at 10 µM; 350,000 tested, 0.47% active; AID 651704, 2012;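 active = every replicate reaching a set inhibition limit, whatever the replicate mean, cut at about 25% in these data; inconclusive = mean inhibition reaches that limit but some replicates miss it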;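 note: 0% = plate neutral control median and 100% = total signal loss; the record names both 10 and 1 µM as test concentration; the first replicate is given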
Target sequence (P42568 whole entry, looked up): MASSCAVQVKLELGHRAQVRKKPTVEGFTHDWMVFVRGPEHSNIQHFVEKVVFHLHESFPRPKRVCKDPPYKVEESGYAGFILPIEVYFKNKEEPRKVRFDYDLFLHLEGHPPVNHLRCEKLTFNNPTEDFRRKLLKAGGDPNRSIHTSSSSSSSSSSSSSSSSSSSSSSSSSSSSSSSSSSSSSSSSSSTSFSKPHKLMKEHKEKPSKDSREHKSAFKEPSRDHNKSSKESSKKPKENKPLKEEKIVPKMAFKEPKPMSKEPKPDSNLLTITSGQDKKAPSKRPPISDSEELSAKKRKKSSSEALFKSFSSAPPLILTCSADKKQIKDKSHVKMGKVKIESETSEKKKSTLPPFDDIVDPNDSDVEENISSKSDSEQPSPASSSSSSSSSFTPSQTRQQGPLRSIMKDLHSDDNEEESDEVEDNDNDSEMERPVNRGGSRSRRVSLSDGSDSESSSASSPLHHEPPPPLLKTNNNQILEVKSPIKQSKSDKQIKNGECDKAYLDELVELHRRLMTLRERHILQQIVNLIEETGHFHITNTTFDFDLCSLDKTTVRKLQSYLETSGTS
T cruzi inh = inhibitors of intracellular T. cruzi growth, primary screen, luminescence, NIH3T3 host cells. inhibition, % (test concentration not listed). T. cruzi beta-gal in NIH3T3, 90 h. 300,000 tested, 1.4% active;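 active = mean inhibition across valid replicates above about 55%, limit read from the data; inconclusive = mean below that limit but half or more replicates reach it; inactive = mean below it, under half of replicates reach it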;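 note: signal also drops with host cell toxicity which is not excluded here; 0% = plate median of DMSO wells and 100% = zero luminescence signal; higher percent means less beta-gal luminescence so fewer parasites; stock transfer was 50 nL into about 50 µL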
rRNA inh HTS OD600 = further read-out of rRNA inh HTS, marked with its call; OD600 change, %; measured here: OD600 growth;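 optical density of the mix in the first replicate; 0 = DMSO median and -100 = no signal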
rRNA inh HTS RFP = recorded beside rRNA inh HTS, whose call it bears; RFP signal change, %; measured here: RFP humanized mutant strains;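 first replicate; 0 = DMSO median and -100 = no signal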
* = called active by the depositor; i = inactive; ? = inconclusive; . = not tested or not shown. An excerpt. The share of hits here may be higher or lower than overall.

SMILES,AF4-AF9 inh,rRNA inh HTS RFP,T cruzi inh,Calb FLC,rRNA inh HTS OD600,ALR H2O2 inh,rRNA inh HTS,Beta cell apopt,RanGTP-Impb inh,FGF22 binding
COc1ccc(COc2cccc3ccc(C)nc23)cc1F,-7.7,12,-6,-13,0,0,-14,-3,-3.6,i
Cc1ccccc1-n1cnnc1SCC(=O)N1CCN(c2ccccc2)CC1,.,.,4,4,.,?,.,2,2.2,.
O=C(NCc1cccs1)C1CCCN(S(=O)(=O)c2cccc3cccnc23)C1 (stereo not drawn),1.0,1.1,-7,-1,-6,-18,-6,-2,-1.0,i
ClC1(CNc2ccccc2)CCN(Cc2ccccc2)CC1,.,17,33,-19,-1,.,-6,-6,3.1,i
Cc1ccc(N2CCN(C(=O)c3ccccc3NC(=O)C3CCCCC3C(=O)O)CC2)cc1 (stereo not drawn),-0.1,.,-1,-3,.,30,.,-1,0.6,i
COc1ccc(C(=O)OCc2c(-c3ccccc3)ncc3ccccc23)cc1,-6.7,-5.4,.,.,-9,0,-1,-5,.,i
Cc1cccc(C(=O)N/N=C/c2ccccn2)c1,.,.,-9,5,.,-6,.,0,4.5,.
Cc1ccc(NC(=O)CSc2nnc([C@@H]3CCCN3C(=O)OC(C)(C)C)o2)c(C)c1,.,.,-11,-7,.,-3,.,-5,-0.3,.
COc1ccc(C(=O)NCc2nnc(SCC(=O)N3CCCCCC3)o2)cc1OC,0.3,1.1,-17,1,11,-10,4,1,1.0,i
Cc1cccc(-n2nnnc2SCC(=O)Nc2ccc(N3CCN(C)CC3)cc2)c1,1.8,5.5,19,0,-5,-25,-1,-7,2.7,i
O=C(O)c1ccc(N2C(=O)c3cccc4c(C(=O)O)ccc(c34)C2=O)cc1,-1.8,3.4,-3,3,17,-50,19,0,-0.6,.
COc1ccc(N(CC(=O)NC2CCCC2)C(=O)c2ccc(C)s2)cc1OC,2.3,0.1,-4,-1,3,-1,2,-1,5.0,i
Cc1ccc(C)n1-c1nnc(N2CCC(C(=O)N3CCN(C)CC3)CC2)s1,5.5,0.1,-3,-4,4,2,6,-15,7.0,i
Cn1nnc2cc(NC(=O)N3CC4(C)CC3CC(C)(C)C4)ccc21 (stereo not drawn),-5.6,-2.5,1,-5,-6,-13,5,-3,3.5,i
COc1cc2oc3ccc(C#Cc4ccccn4)cc3c(=O)c2cc1OC,-6.1,-3.8,59*,57,13,2,7,.,-2.1,i

Arranged by count of non-hydrogen atoms (largest number first): part of the list above.
SMILES,AF4-AF9 inh,rRNA inh HTS RFP,T cruzi inh,Calb FLC,rRNA inh HTS OD600,ALR H2O2 inh,rRNA inh HTS,Beta cell apopt,RanGTP-Impb inh,FGF22 binding
COc1ccc(N(CC(=O)NC2CCCC2)C(=O)c2ccc(C)s2)cc1OC,2.3,0.1,-4,-1,3,-1,2,-1,5.0,i
ClC1(CNc2ccccc2)CCN(Cc2ccccc2)CC1,.,17,33,-19,-1,.,-6,-6,3.1,i
Cc1cccc(C(=O)N/N=C/c2ccccn2)c1,.,.,-9,5,.,-6,.,0,4.5,.

(listing goes on)
SMILES,AF4-AF9 inh,rRNA inh HTS RFP,T cruzi inh,Calb FLC,rRNA inh HTS OD600,ALR H2O2 inh,rRNA inh HTS,Beta cell apopt,RanGTP-Impb inh,FGF22 binding
O=S(=O)(Nc1ccccc1N1CCOCC1)c1ccc(Cl)s1,.,.,-8,9,.,-1,.,-9,-0.3,.
COc1ccccc1-c1nnc(NC(=O)c2ccc3ncsc3c2)o1,-1.5,2.3,-11,?,-3,5,-7,4,1.3,i
O=[N+]([O-])c1ccc(CNc2ccc(F)cc2)s1,12,13,16,12,12,99*,-9,.,0.5,i
CCN(CC(=O)NCc1cccs1)C(=O)/C=C/c1ccc(C)cc1,-2.5,-0.8,.,.,-6,1,0,-1,.,i
COc1ccccc1NC(=O)COc1cc(Br)c(CNCCCN2CCOCC2)cc1OC,2.9,-4.5,46,-7,-6,-5,-8,4,1.4,i
COc1ccc(N2CCN(C(=O)CCCn3c(=O)[nH]c4cc(Cl)ccc4c3=O)CC2)cc1,.,.,10,-4,.,24,.,6,1.6,.
c1ccc(CSC2=NCCCN2)cc1,.,.,1,-7,.,-13,.,-4,-2.7,.
CC[N+](CC)(CC)CCOc1ccc(/C=C/c2ccccc2)cc1,13,-15,.,.,-78,.,-53,58,.,i
C/C(O)=C(/N=O)C(=O)Nc1ccccc1,7.0,-3.0,3,-3,0,.,1,1,-2.4,i
COc1cc(C(=O)NC(=S)NNC(=O)c2ccc3c(c2)OCO3)cc(OC)c1OC,-4.0,-7.3*,-13,44,-2.1*,.,-23*,14,5.4,i
O=C(O)CN1C(=O)/C(=C\c2ccc(OC(=O)c3ccco3)cc2)SC1=S,-0.5,-1.4,10,-3,6,.,2,-1,-0.6,i
CC(c1nnc(SCC(=O)Nc2cccnc2Cl)n1-c1ccccc1)N(C)C (stereo not drawn),0.2,3.4,-15,?,5,-2,2,-5,0.9,i
O=C(CC1C(=O)NCCN1Cc1ccccc1)NC1CCCCCC1 (stereo not drawn),3.3,-0.1,-1,-2,0,26,-5,-4,2.3,i
O=C(Nc1ccccc1)C(O)C(O)C(=O)Nc1ccccc1 (stereo not drawn),-5.8,.,-8,-3,.,-7,.,-1,-3.9,i
CCCOc1ccccc1NC(=O)c1c(-c2ccccc2)noc1C,-2.4,-15,16,12,-10,.,-11,.,-3.3,i
Cc1ccc(Oc2cc(-n3nc(C)cc3C)ncn2)cc1,.,.,10,3,.,25,.,-2,-0.6,.
Cc1c(C(=O)Nc2ccc(F)cc2)nnn1-c1cccc(C(F)(F)F)c1,-2.1,1.0,22,-2,-2,-23,0,4,2.2,i
O=C(Nc1cc(C(F)(F)F)ccc1Cl)C(Sc1ccccn1)c1ccccc1 (stereo not drawn),.,-2.2,-5,-11,10,-13,10,-4,-2.9,i
Cc1ccccc1-c1cc(C(=O)Nc2sc(C)c(C)c2C(N)=O)c2ccccc2n1,.,.,19,-9,.,8,.,93*,-3.4,.
CCN(CC)C(=O)Cn1cc(C(=O)C(=O)N(C)C2CCN(C)CC2)c2ccccc21,1.1,-2.9,1,-2,-8,-1,5,-6,-1.9,i
CCCCCc1ccc(-c2ccc(OC)cc2)nc1,-3.7,7.4*,1,-4,-17*,-1,-24*,2,-2.4,i
COc1ccc(CCNC(=O)CSc2nc(C)cc(C)n2)cc1OC,-1.9,1.7,-9,-22,-5,-5,11,0,-5.2,i
COc1ccc(-c2nnn(CC(=O)N(CC3CCCO3)C(C(=O)NC(C)(C)C)c3ccco3)n2)cc1OC (stereo not drawn),-0.5,-1.4,-5,10,4,.,-4,0,?,i
Cc1cc(/C=C/C(=O)O)c(C)n1-c1ccc(Cl)cc1,1.2,.,-8,-83,.,20,.,1,2.8,.
CN(C)c1ccc(S(=O)(=O)N(C)C)cc1NC(=O)Cc1cccc2ccccc12,2.8,3.4,23,0,-17,-4,-4,5,1.0,i
C(=N\n1cnnc1)/c1cccn1-c1ccccc1,.,.,6,-9,.,-15,.,-7,-2.8,.
COc1cc(CN2CCN(c3ncccn3)CC2)cc(OC)c1,1.1,-2.4,-1,10,2,5,-5,-4,2.7,.
O=C(CN1CCOCC1)OCCCc1ccccc1,.,.,3,0,.,-6,.,0,-2.4,.
O=c1ccnc(Nc2ccc(Cl)cc2)[nH]1,-6.3,-9.5,-5,3,6,-4,-3,-5,2.2,i
Cc1[nH]c2ccccc2c1C(=O)C(C)OC(=O)C1CCC1 (stereo not drawn),-0.6,-2.2,-4,14,-6,-6,-1,0,1.0,i

ALR H2O2 inh, what is marked active above
compound | AF4-AF9 inh | rRNA inh HTS RFP | rRNA inh HTS OD600 | ALR H2O2 inh | rRNA inh HTS | RanGTP-Impb inh
O=[N+]([O-])c1ccc(CNc2ccc(F)cc2)s1 | 12 | 13 | 12 | 99* | -9 | 0.5

More records.
SMILES,AF4-AF9 inh,rRNA inh HTS RFP,T cruzi inh,Calb FLC,rRNA inh HTS OD600,ALR H2O2 inh,rRNA inh HTS,Beta cell apopt,RanGTP-Impb inh,FGF22 binding
Oc1ccc2ccccc2c1C=Nc1ccccc1Br,-1.8,3.1,-1,-5,18,-23,7,-13,2.7,i
Cc1cc(N/N=C/c2ccc(O)cc2)c2cccc(C)c2n1,?,-9.8,47,1,-26,100*,-15,43,1.2,i
CC(=O)Nc1cccc(Nc2nc(-c3cccs3)nc3ccccc23)c1,2.3,-8.5,-6,-1,-74,-4,-54,7,-2.0,i
CC1CCN(C(=O)c2ccc(S(=O)(=O)N3CCOCC3)cc2)CC1,-0.8,-1.7,-7,4,11,-1,7,-2,-1.8,i
CC(=O)C(=Nc1cccc(Cl)c1)NNc1ccccc1C,.,-2.4,2,4,-2,3,-9,.,0.7,i
Cc1cc(NC(=O)C(C)C)ncc1NC(=O)Cc1ccccc1,.,.,3,.,.,3,.,-6,6.2,.
COCCNC(=O)CN(c1cc(Cl)ccc1OC)S(=O)(=O)c1ccc(C)c([N+](=O)[O-])c1,-0.3,0.0,12,4,4,3,13,0,1.6,i
COc1cccc(NC(=O)CN(C)C(=O)c2cc(S(=O)(=O)NCc3ccccc3)ccc2C)c1,-1.0,-1.7,-2,2,-9,-2,-4,-2,1.6,i
COC(=O)c1c(NC(=O)CN2CCN(Cc3ccc4c(c3)OCO4)CC2)sc(C)c1C,.,.,59*,-30,.,97*,.,8,10,.
COc1ccc(OCc2nc3ccccc3n2C(C)C)cc1,1.0,-4.8,23,63,-37,3,-37,-1,5.7,i
COC(=O)c1nn(-c2cccc(C(F)(F)F)c2)ccc1=O,-2.5,-0.3,-4,4,18,-7,6,-4,-1.4,i
COc1ccc(CCNC(=O)Cn2nnc(-c3ccc(N(C)C)cc3)n2)cc1OC,.,.,12,-3,.,2,.,0,1.1,.
COC(=O)CN1CCN(C(=O)c2ccc(F)cc2)c2ccccc2C1,.,.,-16,-6,.,-15,.,-2,0.7,.
CCOC(=O)c1c(NC(=O)COc2ncnc3ccccc23)sc(C(C)=O)c1C,.,.,-14,3,.,.,.,7,0.5,.
COc1ccccc1CC(=O)N1CCCC1,.,.,-4,2,.,-2,.,2,4.3,.
N#C/C(=N/Nc1ccccc1F)C(=N)N1CCOCC1,.,.,12,-24,.,12,.,2,-0.3,.

From PubChem
